HPGD block – HPGD (human) dehydrogenase inhibition; AID 894; purified HPGD, NADH fluorescence kinetic, PGE2 substrate; P15428; Potency, µM, for the others: at the top dose activity change, negative = inhibition, usual class: inhibitors; 150,000 compounds, 4.3% hits; active = well fitted inhibition curve with a large enough effect (not every such curve was filed as active); inconclusive = small, poorly fitted or top-dose-only effect, or another doubt; inactive = no such curve, though single readings can be large or run the other way;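 further: top concentration of the series not given in the record; plate controls included wells without enzyme; inactives centre near -10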
Target sequence (P15428 whole entry, looked up): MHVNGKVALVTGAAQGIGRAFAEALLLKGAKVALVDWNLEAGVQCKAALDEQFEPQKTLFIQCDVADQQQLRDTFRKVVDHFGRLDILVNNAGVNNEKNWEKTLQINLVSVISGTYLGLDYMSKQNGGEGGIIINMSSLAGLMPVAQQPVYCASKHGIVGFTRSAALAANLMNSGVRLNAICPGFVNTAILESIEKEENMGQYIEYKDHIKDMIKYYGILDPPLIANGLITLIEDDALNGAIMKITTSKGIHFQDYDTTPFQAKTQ
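20 nM HPGD preincubated 15 min at room temperature with compound in 50 mM Tris-HCl pH 8, 0.01% Tween 20. Started with 1 mM NAD+ and 30 uM prostaglandin E2; NADH fluorescence (360/450 nm) read 5 times over 30-s intervals, last minus first.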
* marks the source's active call; other numbers are inactive results; ? = inconclusive. On the % scale 0 is the no-effect control and ±100 the full control effect; potency means the concentration at half of the fitted maximal effect.

entry	SMILES	HPGD block
1	CCOC(=O)CN1C(=O)C(O)(c2c(C)[nH]c3ccccc23)c2ccccc21 (stereo unspecified)	-7%
2	O=C(c1cc2ccccc2oc1=O)N(Cc1ccccc1)CC1CCCO1 (stereo unspecified)	-9%
3	Cc1ccc(CNC(=O)CN2C(=O)C3(OCCCO3)c3ccccc32)cc1	-5%
4	CCCCC(=O)Nc1ccc(C(=O)NCCc2ccccc2)cc1	-19%
5	CCN(CC)CCCn1c(C)cc2c(c1=O)C(c1ccccc1)C(C#N)=C(N)O2 (stereo unspecified)	-22%
6	S=C(NNc1ccnc2cc(Cl)ccc12)Nc1ccccc1Cl	25µM*
7	Nc1nc(CN2CCN(c3ccccc3)CC2)nc(N2CCCc3ccccc32)n1	-6%
8	C=CCn1c(SCC(=O)/C(C#N)=C(\C)N)nc2sc(CC)cc2c1=O	-8%
9	COc1nc(-c2ccccc2)ccc1-c1noc(COc2ccccc2)n1	?
10	O=C(CCn1nnc(-c2cccs2)n1)NCc1ccccc1Cl	0%
11	CC(=O)c1c(C)oc2ccc(O)c(CN3CCOCC3)c12	-10%
12	CC(C)OCC(O)CS(=O)(=O)Cc1ccccc1 (stereo unspecified)	13µM*
13	O=C(COC(=O)c1c2c(nc3ccccc13)CCCCC2)NCc1ccc2c(c1)OCO2	-7%
14	CCOC(=O)N1CCN(C(=O)CN(C2CCCCC2)S(C)(=O)=O)CC1	-7%
15	C=CCn1c(SCc2nc3ccccc3[nH]2)nnc1-c1ccc(OC)cc1	-16%
16	O=C(c1ccco1)N1CCC2(CCCN(c3cccc(-c4ccccc4)c3)C2)CC1	-7%
17	CS(=O)(=O)N1CCC2(CCCN(C(=O)Nc3cccc(F)c3)C2)CC1	-10%
18	O=C(CCl)c1ccc(Cc2ncc(C(F)(F)F)cc2Cl)s1	-22%
19	COc1ccc(-c2nc(SCC(=O)Nc3cc(C)on3)n[nH]2)cc1	-18%
20	CCCn1c(NCc2ccccc2NS(=O)(=O)c2ccc(C)cc2)nc2ccccc21	-6%
21	O=C(NCc1ccco1)c1ccc(N2CCCC2=O)cc1	25µM*
22	CN(CC(=O)Nc1ccc(F)c(F)c1)S(=O)(=O)c1cccc2nsnc12	-26%
23	COC(=O)c1sccc1NC(=S)N1CCN(c2cc(C)ccc2C)CC1	-8%
24	CC(C)N(c1ccccc1)c1ccc(NC(=O)C2CCCO2)cc1 (stereo unspecified)	-9%
25	COc1ccc(OC)c(S(=O)(=O)N2CCC(C(=O)Nc3ccc(C)c(C)c3)CC2)c1	-13%

Looked up above:
HPGD block with S=C(NNc1ccnc2cc(Cl)ccc12)Nc1ccccc1Cl : 25µM*
HPGD block with O=C(c1ccco1)N1CCC2(CCCN(c3cccc(-c4ccccc4)c3)C2)CC1 : -7%
HPGD block with O=C(COC(=O)c1c2c(nc3ccccc13)CCCCC2)NCc1ccc2c(c1)OCO2 : -7%

Following part:
entry	SMILES	HPGD block
26	COc1cc(CC(NC(C)=O)C(=O)NC2CCN(c3nc(C)cc(C)c3C#N)CC2)cc(OC)c1 (stereo unspecified)	?
27	CC(=O)NCC(=O)OCC(=O)c1ccc(C)c(C)c1	-2%
28	CCOC(=O)c1c(NC(=O)C2=C(C)NC(=S)NC2c2ccc(C)cc2)sc(C)c1C (stereo unspecified)	?
29	O=C(NCC1CCCO1)C1CCC(=O)N1Cc1ccccc1Cl (stereo unspecified)	-20%
30	Cc1cccc(CNc2ncnc3[nH]ncc23)c1	-2%
31	CN1C(=O)SC(Nc2cccc3ccccc23)C1=O (stereo unspecified)	-21%
32	CCOC(=O)c1c(-c2ccc(C)o2)csc1NC(=O)CN(C)CC(=O)Nc1ccc(C)cc1	?
33	Cn1c(=O)c2cn(-c3ccccc3)cc2n(C)c1=O	-20%
34	Cc1nc2c(C(=O)NCCc3ccccc3Cl)c[nH]n2c(=O)c1Cl	?
35	CCOc1ccccc1N1CCN(C(=O)c2c(C)noc2C)CC1	-7%
36	O=C1c2cccc3c(N4CCCCC4)ccc(c23)C(=O)N1c1ccccn1	-12%
37	CCCc1cc(C(=O)Nc2cc(Br)ccc2O)no1	?
38	COc1ccccc1N1CSC2=C(C#N)C(c3ccc(SC)cc3)CC(=O)N2C1 (stereo unspecified)	8.9µM*
39	C=CCNC(=O)c1ccc2c(c1)nnn2C	-22%
40	Cc1ccc(S(=O)(=O)Nc2cc(C(=O)NCCN3CCCC3)ccc2N2CCCCC2)cc1	-31%
41	CCOc1ccc(NC(=S)NC(=O)/C=C/c2ccc(OC)c(OC)c2)c([N+](=O)[O-])c1	22µM*
42	CCN(CCO)C(=O)C12CCC(C)(C(=O)C1)C2(C)C (stereo unspecified)	-9%
43	CCc1ccc(NC(=O)C(CC)c2ccccc2)cc1 (stereo unspecified)	-12%
44	COc1ccccc1NC(=O)CC1COc2ccccc2O1 (stereo unspecified)	-4%
45	CN(C)c1ccc(/C(=N\O)C(F)(F)F)cc1	-28%
46	Cn1ccnc1SCCC#N	-1%
47	NCC(O)COCCC12CC3CC(CC(C3)C1)C2 (stereo unspecified)	-13%
48	O=C(CCCC(=O)OCC(=O)c1cccs1)Nc1ccc(Oc2ccccc2)cc1	-26%
49	CCOc1ccc(C(C(=O)NC2CCCCC2)N(C(=O)Cc2cccs2)c2ccc(-n3cnnn3)c(OC)c2)cc1 (stereo unspecified)	-4%
50	CCn1c(C)c(C(C)=O)c(N2CCCCC2)nc1=S	-3%
51	CC(=O)Oc1ccc(C(=O)Nc2cccc(C(=O)c3ccc(C)c(C)c3)c2)cc1	-16%
52	CN(C)C(=O)CN(C)S(=O)(=O)c1ccc(Cl)cc1	-12%
53	COC(=O)c1ccc(N)cc1O	-11%
54	Cc1ccccc1-c1ccc(=O)n(CC(=O)Nc2ccc(N3CCOCC3)cc2)n1	-5%
55	CCCCCN(C(=O)NC(=O)Nn1cnnc1)S(C)(=O)=O	-8%
56	N#Cc1c(=O)c2nc(NCc3ccccc3)ncc2n2ccccc12	?
57	O=C(CNC(=O)c1ccccc1Cl)Nc1ccc(F)cc1	-4%
58	COc1cc(NC(=O)c2cccnc2Sc2ccc(Cl)cc2)cc(OC)c1OC	-5%
59	CC(=O)Nc1nc(C)nc(C)c1C(C)=O	2%
60	CCN(CC)CCN1C(=O)c2ccccc2NC1c1cc(OC)c(OC)c(OC)c1 (stereo unspecified)	?
61	CC(C)c1ccc(NC(=O)C2CCCCC2C(=O)O)cc1 (stereo unspecified)	-8%
62	CC(C)(CO)NCc1ccccc1OCC(=O)Nc1ccccc1	-1%
63	Cc1ccc(S(=O)(=O)N2CCOCC2)cc1NC(=O)COC(=O)c1cc(=O)c2ccccc2o1	-3%
64	CCN(CC)CCN1C(=O)C(=O)/C(=C(/O)c2ccccc2)C1c1ccccc1F (stereo unspecified)	-11%
65	CN(C)CCNc1ncnc2ccccc12	-10%
66	O=C(COC(=O)CNS(=O)(=O)c1ccccc1)Nc1ccc(Cl)cn1	2%
67	O=C1CC(c2ccc(S(=O)(=O)NCc3ccccc3)cc2)CN1 (stereo unspecified)	-8%
68	CCCCn1nnnc1NCc1cccs1	-7%
69	CCOC(=O)C1CCCCN1Cc1ccc(F)cc1 (stereo unspecified)	-5%
70	Cc1ccc(/C=N/Nc2nc(C(C)(C)C)cs2)o1	-17%
71	CC12CN(C(=O)c3ccc(Cl)cc3)C3(C#N)CC1CCC23C (stereo unspecified)	-13%
72	CCOC(=O)Cn1c(CN2CCOCC2)nc2c1c(=O)n(C)c(=O)n2C	-17%
73	CCOC(=O)C1CCN(C(=O)CSc2ccc(Cl)cc2)CC1	-7%
74	CC(=O)N1CCc2cc3nc(C)cc(C)c3cc21	?
75	CCOc1cc2c3c(c1)C1(C(=O)N3C(C)(C)CC2C)C(C#N)=C(N)N2C(=C1C#N)Nc1ccccc12 (stereo unspecified)	-13%

Additional results follow.
entry	SMILES	HPGD block
76	Cc1ccc(-c2nc3ccccc3c(=O)n2NC(=S)N(C)C)cc1	28µM*
77	CCOC(=O)N1CCN(C(=O)c2ccc3nc(N4CCCCC4)sc3c2)CC1	-23%
78	Oc1ccccc1-c1nc(/C=C/c2ccccc2)nn1-c1ccccc1	?
79	O=C(c1ccc([N+](=O)[O-])cc1)N1CCSC1c1ccccc1 (stereo unspecified)	-5%
80	O=C(/C(=C/O)N=Nc1ccccc1)c1ccncc1	-23%
81	CCCCNC(=O)CSc1nc2ccsc2c(=O)n1C1CCN(C(=O)OCC)CC1	-2%
82	CC(NC(=S)NCCc1ccccc1)C(c1cccs1)N1CCN(Cc2ccccc2)CC1 (stereo unspecified)	-27%
83	O=C(CN(Cc1cccs1)C(=O)CNS(=O)(=O)c1ccc(F)cc1)NCc1ccco1	-1%
84	O=C(CC(O)(C(F)(F)F)C(F)(F)F)Nc1ccc(Cl)c(Cl)c1	-6%
85	CC(C)(/C=N/O)/[N+]([O-])=C/c1ccccc1C(F)(F)F	-15%
86	NC(=O)c1nn(-c2ccccc2)c(=O)cc1O	-4%
87	CC(=O)Nc1cccc2c1OCCO2	-11%
88	CC1(C)N=C(/C=N/O)CN1O	-18%
89	CC1(c2ccc(OC(F)F)cc2)NC(=O)N(/N=C/c2c(O)ccc3ccccc23)C1=O (stereo unspecified)	-24%
90	CC(C)(C)SCCNC(=O)Nc1ccccc1	-14%
91	COc1ccc2c(c1)C(=O)[C@H](OC(=O)NCCOc1ccccc1)[C@@H](c1ccc(OC)c(Br)c1)O2	-28%
92	CCCCCCNc1nc(NCc2ccco2)nc(OCC)n1	-19%
93	O=C(NCCCN1CCN(CCCNC(=O)c2cccc([N+](=O)[O-])c2)CC1)c1cccc([N+](=O)[O-])c1	-5%
94	O=C(CN(Cc1ccc2c(c1)OCO2)C(=O)CNC(=O)c1ccco1)NC1CCCCC1	-7%
95	COc1cc(/C=N/NC(=O)c2ccc(-n3cccc3)cc2)ccc1O	-14%
96	COc1ccc(CNC(=O)COC(=O)/C=C/c2cccs2)cc1	-9%
97	O=C1CC(c2c[nH]c3ccccc23)C(=O)N1 (stereo unspecified)	0%
98	C[C@@H]1CN(CCCn2c3ccccc3c3ccccc32)C[C@H](C)N1	-7%
99	O=C(Nc1cccc(Cl)c1)Nc1cc(S(=O)(=O)N2CCOCC2)ccc1N1CCCC1	?
100	CCN=C(NCC)SC1CC(=O)N(c2ccc(OC)cc2)C1=O (stereo unspecified)	-10%
101	CCN(CC)CCCn1c(-c2ccccc2)nc2c(NCc3ccccc3)nc(C)nc21	?
102	CCc1ccc2c(c1)/C(=N/OC)C(=O)N2	-11%
103	O=[N+]([O-])c1ccc(C(=S)N2CCC(Cc3ccccc3)CC2)cc1	-19%
104	COc1cc(/C=C2\OC(=O)c3c(OC)cccc32)ccc1O	?
105	Cc1ccc(CN2C(=O)N/C(=C/c3cc(C)n(-c4ccccn4)c3C)C2=O)cc1	-13%
106	Cc1cc(C)c(/C=C(\C#N)C(N)=S)c(C)c1	?
107	Cc1ccc(/C=c2\sc3nc(-c4ccccc4Br)nn3c2=O)o1	20µM*
108	Cc1cc(OCC(=O)c2ccc(F)cc2)ccc1N1C(=O)CCC1=O	-12%
109	COc1ccccc1CN1CCSCC1	5%
110	Cc1ccc(NC(=O)C2C(c3ccccc3)C2(Cl)Cl)c(C)c1 (stereo unspecified)	28µM*
111	Cc1ccccc1NC(=O)Cc1cn(C)c2ccccc12	-19%
112	C=CCNC(=O)C(C#N)c1nc2ccccc2nc1N1CCCCCC1 (stereo unspecified)	?
113	CCOC(=O)N1CCN(C(=O)c2ccc3c(=O)n(-c4ccc(OC)cc4)c(=S)[nH]c3c2)CC1	-4%
114	CCCCn1c(CCn2nc(C)c(Br)c2C)n[nH]c1=S	22µM*
115	Cc1cc(C(=O)N2CCN(CCc3ccccc3)CC2)no1	0%
116	CC1Cc2nc(SCC(=O)OCc3ccccc3)n(C)c(=O)c2S1 (stereo unspecified)	-28%
117	CCCOc1ccc(C(=O)NCc2cccnc2)cc1	-1%
118	O=C(c1csnn1)N1CCC2(CC1)CN(C(c1ccccc1)c1ccccc1)C2	-3%
119	COC(=O)c1nn(-c2ccc3c(c2)OCO3)cc1O	-27%
120	O=C(NCCc1ccccc1)C(c1ccncc1)N(C(=O)c1csnn1)C1CC1 (stereo unspecified)	-9%
121	COc1ccccc1C(=O)COC(=O)c1ccccc1OCC(=O)Nc1ccc(SC(F)F)cc1	-8%
122	Cc1ccc(C(=O)COC(=O)CCC(=O)Nc2cccc(Cl)c2)cc1[N+](=O)[O-]	-11%
123	O=C(c1cccs1)N1N=C(c2ccc(O)cc2)CC1c1ccccc1 (stereo unspecified)	-11%
124	Cc1csc(NC(=O)c2cc(-c3ccco3)nc3ccccc23)n1	?
125	c1ccc(-c2n[nH]c(-c3ccccc3)c2-c2nc3ccccc3[nH]2)cc1	-20%

More results:
entry	SMILES	HPGD block
126	C/C(Cl)=C/Cn1c(SCCN2CCOCC2)nc2c1c(=O)[nH]c(=O)n2C	?
127	Cn1c2ccc(F)cc2c2ncn(Cc3ccco3)c(=O)c21	?
128	Cn1c(-c2ccccc2)cccc1=O	-18%
129	CCOC(=O)N1CCC(NC(=O)CCS(=O)(=O)c2ccc3c(c2)CCN3C(=O)CC)CC1	-3%
130	CCOc1ccc(Cn2nnc(C(=O)NCc3ccc(OC)cc3)c2N)cc1	-5%

Reformatted field by field: part of the list above.
126. C/C(Cl)=C/Cn1c(SCCN2CCOCC2)nc2c1c(=O)[nH]c(=O)n2C
  HPGD block = ?

127. Cn1c2ccc(F)cc2c2ncn(Cc3ccco3)c(=O)c21
  HPGD block = ?

Six entries already listed, ordered by the number in HPGD block, smallest number first.
entry	SMILES	HPGD block
38	COc1ccccc1N1CSC2=C(C#N)C(c3ccc(SC)cc3)CC(=O)N2C1 (stereo unspecified)	8.9µM*
12	CC(C)OCC(O)CS(=O)(=O)Cc1ccccc1 (stereo unspecified)	13µM*
107	Cc1ccc(/C=c2\sc3nc(-c4ccccc4Br)nn3c2=O)o1	20µM*
114	CCCCn1c(CCn2nc(C)c(Br)c2C)n[nH]c1=S	22µM*
21	O=C(NCc1ccco1)c1ccc(N2CCCC2=O)cc1	25µM*
110	Cc1ccc(NC(=O)C2C(c3ccccc3)C2(Cl)Cl)c(C)c1 (stereo unspecified)	28µM*

This is a subset, so the mix of outcomes need not match the whole.
